# Source: PubChem BioAssay (several laboratories)
# AF4-AF9 inh – MLL-AF4/AF9 protein interaction inhibition | 350,000 tested, 0.47% active | inhibition, % at 10 µM | AID 651704 | AlphaScreen, biotin-AF4 peptide binding to FLAG-AF9 | P42568;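 active = every replicate reaching a set inhibition limit, whatever the replicate mean, cut at about 25% in these data; inconclusive = mean inhibition reaches that limit but some replicates miss it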;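 note: 0% = plate neutral control median and 100% = total signal loss; the record names both 10 and 1 µM as test concentration; the first replicate is given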
# Target sequence (P42568 whole entry, looked up): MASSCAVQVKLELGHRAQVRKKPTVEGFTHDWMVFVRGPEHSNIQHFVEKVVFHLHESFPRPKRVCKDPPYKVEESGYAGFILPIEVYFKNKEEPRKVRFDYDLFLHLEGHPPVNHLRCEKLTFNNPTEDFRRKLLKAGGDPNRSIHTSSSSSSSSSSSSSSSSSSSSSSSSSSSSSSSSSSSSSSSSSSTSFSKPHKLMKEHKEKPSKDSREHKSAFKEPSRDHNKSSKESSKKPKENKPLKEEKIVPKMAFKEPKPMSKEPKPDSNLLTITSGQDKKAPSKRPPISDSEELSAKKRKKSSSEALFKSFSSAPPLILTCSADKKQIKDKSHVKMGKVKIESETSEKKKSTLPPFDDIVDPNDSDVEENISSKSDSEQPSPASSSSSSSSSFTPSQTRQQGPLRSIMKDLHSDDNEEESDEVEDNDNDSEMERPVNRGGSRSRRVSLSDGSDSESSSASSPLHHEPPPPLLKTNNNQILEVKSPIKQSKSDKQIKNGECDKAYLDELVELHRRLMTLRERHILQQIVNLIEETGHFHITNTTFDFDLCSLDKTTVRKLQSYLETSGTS
# Beta apoptosis – blocks beta cell apoptosis; 300,000 tested, 0.8% active; INS-1E cytokine-induced death, ATP luminescence, 48 h; percent of positive-control rescue, neutral wells zero; AID 435005; protection from apoptosis, % (test concentration not listed);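 active = all replicates at 75% or more, or half of them and the mean; inconclusive = half reach 75% but not the mean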;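 note: 0% = cytokine-treated negative control wells and 100% = positive control rescue; higher means more ATP so stronger rescue from cytokine killing; wells of about 40 µL received 100 nL stock; the first replicate is given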
# Vif A3G – HIV-1 Vif–A3G interaction blockers – biochemical, TR-FRET, GST-Vif 1-94, biotin-A3G peptide, dose response retest, primary screen (AID 1117319); TR-FRET GST-Vif / biotin-A3G peptide binding; higher % means a stronger effect; test concentration not given here; strong numbers were not always called active; one-dose inhibition, %; IC50 in µM for titrated hits; 260,000 tested, 0.57% active;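 active = above the screen mean plus three standard deviations and confirmed in dose response; inconclusive = results disagree or hit not tested in dose response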;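 note: Vif residues 1-94 fused to GST binding biotinylated APOBEC3G peptide 110-148; 0% = full assay without inhibitor and 100% = GST in place of GST-Vif; retest series ran down from 100 µM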
# RanGTP-Imp inh – disruptors of Ran-importin-beta complex formation – biochemical, FRET, CFP-Ran, YFP-importin-beta, homogeneous, primary screen; inhibition, % (test concentration not listed); cell-free CFP-Ran/YFP-importin-beta FRET ratio; AID 2216; 300,000 tested, 1.1% active;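 active = most replicates above 15%; inconclusive = exactly half above 15%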;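 note: 0% = DMSO wells and 100% = Ran loaded with GDP instead of GTP; wells of about 40 µL received 100 nL stock; the first replicate is given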
# Bfl-1 A1 inh – inhibitors of the anti-apoptotic protein A1, read as caspase activation; AID 2462; 330,000 tested, 0.066% active; MEF A1-2A-BIM cells, Caspase-Glo 3/7 luminescence, 3 h; percent of clofoctol response, vehicle zero; caspase activation, % (no concentration beside the values);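 active = over half of replicate activation scores above 10%, or exactly half above 10 with the replicate mean above 10; inconclusive = replicate mean below 10 yet half the replicates above 10; inactive = over half of replicates below 10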;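 note: wells of about 30 µL received 50 nL stock; many hits fall short of the cut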
# Calb FLC – affects C. albicans growth with fluconazole. C. albicans CaCi-2 (fluconazole-resistant clinical isolate) + fluconazole, Alamar Blue growth, 48 h. growth inhibition, % (concentration not given with the values). 300,000 tested, 0.57% active. AID 1979;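 active = most replicates above 75%; inconclusive = exactly half above 75%; inactive = most below 75%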;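 note: all wells also contain fluconazole at 8 µg/ml as a sub-toxic cotreatment; 0% = median of DMSO wells and 100% = median of geldanamycin control wells; wells of about 8 µL received 7.5 nL stock; the first replicate is given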
# LANA-H2A inh – blocks KSHV LANA binding to histone H2A/H2B. Q9QR71. cell-free LANA-H2A/H2B peptide, fluorescence polarization. inhibition, % (test concentration not listed). 320,000 tested, 0.6% active; in the data active = inhibition mostly above about 10%, no sharp cut-off; inactive = mostly below about 6.7%;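 note: stock transfer was 7.5 nL into about 10 µL; 0% = median of vehicle wells and 100% = median of positive control wells; one replicate is shown; the record names a cut of 25% in any replicate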
# T cruzi inh – blocks replication of Trypanosoma cruzi. T. cruzi beta-gal in NIH3T3, luminescence, 90 h. inhibition, % (no concentration beside the values). 300,000 tested, 1.4% active. AID 1885;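 active = mean inhibition across valid replicates above about 55%, limit read from the data; inconclusive = mean below that limit but half or more replicates reach it; inactive = mean below it, under half of replicates reach it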;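 note: signal also drops with host cell toxicity which is not excluded here; 0% = plate median of DMSO wells and 100% = zero luminescence signal; higher percent means less beta-gal luminescence so fewer parasites; stock transfer was 50 nL into about 50 µL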
# Numbers without * were called inactive; ? = inconclusive; . = not tested or not shown; & = joins results of further samples.
canonical_smiles	LANA-H2A inh	Vif A3G	Calb FLC	T cruzi inh	RanGTP-Imp inh	Bfl-1 A1 inh	Beta apoptosis	AF4-AF9 inh
CCc1nnc(NC(=O)CSc2ccc(-c3ccccc3OC)nn2)s1	-1.4	-3%	28	5	1.1	-1.0	0	-1.4
O=C(Oc1cccc2cccnc12)c1ccc(N2C(=O)C3C4CCC(C4)C3C2=O)cc1 (stereo not drawn)	1.6	?	0	-15	5.1	0.2	-1	.
Cc1nnc2sc(-c3ccco3)nn12	-3.8	0%	-1	-2	7.4	-0.9	-1	-2.7
COc1cccc(OC)c1C(=O)Nc1ccc(N2CCN(S(C)(=O)=O)CC2)cc1	0.3	2%	15	-18	-1.4	-0.4	-3	.
Cc1cc(-c2ccccc2)nc2cc(C(N)=O)nn12	3.8	5%	2	-15	-2.2	0.4	-6	.
CC(CNC(=S)Nc1cc(F)cc(F)c1)CSc1ccc(Cl)cc1 (stereo not drawn)	1.2	10%	2	7	-2.7	1.3	13	-0.3
COc1cc(Cl)c(C)cc1NC(=O)COC(=O)c1cnc(C)cn1	-5.0	-5%	12	-14	1.8	0.9	-2	.
O=C(C[n+]1cc(Br)cc(Br)c1)c1ccccc1	-3.4	.	-3	-10	1.3	0.8	-7	1.7
CCCCOc1ccccc1P(=O)(O)CP(=O)(c1ccccc1)c1ccccc1	5.9	8%	?	8	-4.8	-0.1	0	.
COc1cccc(/C=N/NC(=O)c2nnn(-c3nonc3N)c2CN(C)c2ccccc2)c1	4.9	.	14	-5	2.3	0.0	0	-15
Cc1nn(C)c(C)c1CN(C)C(=O)c1cnn2c1NC(c1ccccc1)CC2C(F)(F)F (stereo not drawn)	-3.3	2%	-7	-1	-0.8	-0.6	31	.
CC1(C)Cc2nc(-c3ccccc3)n3cnnc3c2CO1	4.9	5%	-7	-9	1.8	0.6	1	.
CN(C)CC(=O)N1c2ccccc2CCc2ccc(NC(=O)c3ccc(N)cc3)cc21	.	12%&10%	-14	18	0.9	0.3	0	.
CCOc1ccccc1CNC(=O)C1CCCN(c2nn3c(=O)cc(C)nc3s2)C1 (stereo not drawn)	-1.6	-2%	-23	-5	-2.2	0.1	-5	-1.5
O=[N+]([O-])c1ccccc1CNCCCCO	-0.7	.	.	.	.	-0.6	2	-0.7
O=C(NC1CCCCC1)c1cc(N2C(=O)CCC2=O)ccc1Cl	-6.8	.	-1	-10	2.5	0.7	2	0.7
CC(CC(=O)Nc1ccc2c(c1)OCCO2)c1ccccc1 (stereo not drawn)	3.1	-5%	2	-5	2.0	0.0	0	.
COC(=O)Nc1ccc(NC(C)=O)cc1	-0.4	2%	-8	-14	17*	1.9	-2	.
Cc1noc(C)c1S(=O)(=O)N(C)CC(=O)Nc1ccc(F)cc1	-2.3	2%	-5	-13	-5.0	0.6	4	.
O=c1nc(-c2ccccc2Cl)c2cc(F)ccc2[nH]1	1.5	.	-5	2	25*	0.8	1	-1.6
COc1ccc(NC(=S)Nc2ncccc2C)c(OC)c1	-5.6	1%	-20	3	-1.8	-0.4	.	-21
C#CC(CCN1CCCCC1)(OC)c1ccccc1 (stereo not drawn)	-0.4	.	7	-3	-0.6	-0.2	0	-5.1
Cc1cc(C)nc(NNS(=O)(=O)c2c(F)cc(F)cc2Br)n1	6.4	.	.	.	.	0.4	1	-2.1
CCOC(=O)N1CCN(C(=O)C2CCN(S(=O)(=O)c3cc(Cl)ccc3Cl)CC2)CC1	0.0	-1%	?	1	8.7	-0.2	1	.
C/C(=N\Nc1nc2ccccc2[nH]1)c1cccs1	-3.5	.	2	47	?	-4.4	37	.
CCN(CC)CCCNC(=O)COc1ccc2oc3c(c2c1)CCCC3	3.7	2%	-1	-13	-1.7	-0.4	-1	4.5
Cc1ccc(NC(=O)Cc2nc(CSc3nnc(-c4ccc5c(c4)OCO5)o3)cs2)cc1	3.0	-7%	25	32	0.5	-1.6	-5	.
Cc1cc(C)c(S(=O)(=O)n2ccc3ccccc32)c(C)c1	-13	0%	-3	23	5.8	0.3	31	.
O=C(COC(=O)/C=C/c1ccc(Cl)cc1)NC1CCCCCC1	0.0	2%	.	.	.	0.0	-5	1.3
O=C(COC(=O)c1ccc(Cl)nc1)Nc1ccc2c(c1)OCO2	-0.5	1%	2	0	-1.1	-0.5	-1	-1.7
O=C(CN1C(=O)NC2(CCCCC2)C1=O)NCCc1c[nH]c2ccccc12	-3.9	.	-8	2	1.5	0.1	0	2.7
CC(NS(=O)(=O)c1ccc(OCC(=O)Nc2cccc([N+](=O)[O-])c2)cc1)c1ccccc1 (stereo not drawn)	1.0	?	.	.	.	0.4	2	1.4
COC(=O)CSc1nnc(CSc2nc(C)cc(C)n2)o1	-1.6	4%	-9	-9	-0.4	0.3	-20	-5.2
Cc1ccc2[nH]c3c(c2c1)CCCC3NCCO (stereo not drawn)	10	0%	4	11	1.7	-1.5	-6	8.5
Cc1noc(C)c1N=Nc1ccc(Br)cc1C(=O)O	0.1	1%	-8	-5	0.7	1.3	-4	-1.2
O=C(Nc1nonc1-c1ccc(Cl)cc1)c1ccco1	0.8	.	.	11	1.4	0.0	0	1.0
CN1C(=O)Cc2cc(S(=O)(=O)NCc3cccs3)ccc21	0.3	.	7	-5	0.8	-0.3	-5	-3.7
Cc1occc1C(=O)NCCc1ccc(Cl)cc1	2.9	4%	-8	-3	0.3	1.4	-3	.
O=C(N/N=C/c1ccc2c(c1)OCO2)c1ccc2c(c1)OCO2	2.1	.	-1	-4	-0.2	-0.4	9	0.8
COc1ccc2sc(-c3ccc(N(C)C)cc3)c(-c3cnc(OC)nc3)c2c1	-0.3	.	.	.	.	-1.0	-4	9.2
CC(C)C[C@@H](C(=O)NC1CC1)N1C(=O)N2CCc3c([nH]c4ccccc34)[C@@]2(C)C1=O	2.8	.	-7	-6	4.2	0.3	3	7.2
O=c1[nH]c(C2CCCN(S(=O)(=O)c3ccc(F)cc3)C2)nc2c1nnn2Cc1ccccc1 (stereo not drawn)	-7.2	?	8	-2	-0.2	-0.6	-2	-23
O=C(NCCc1cccs1)C1CC(c2ccc([N+](=O)[O-])cc2)=NO1 (stereo not drawn)	-0.5	4%	-2	-13	1.3	-0.2	-5	-4.1
CN(C)S(=O)(=O)c1cccc(NC(=O)Cc2ccc(-c3ccccc3)cc2)c1	-2.9	.	-3	49	-1.0	0.0	22	-2.0
NS(=O)(=O)c1ccc(CCNC2CC(=O)N(Cc3ccccc3)C2=O)cc1 (stereo not drawn)	-3.6	68%	13	-4	2.0	0.9	-2	.
O=C(NCC1CCCO1)C1CC(c2ccccc2Cl)=NO1 (stereo not drawn)	2.9	0%	?	-5	?	0.4	-5	.
C=CCC12C=C(OC)C(=O)OC(OC)(C1O)[C@H](c1ccc3c(c1)OCO3)[C@H]2C (stereo partly drawn)	-0.5	.	-1	-8	-1.9	-0.8	-2	-1.2
COc1ccc(NC(=O)c2ccc(S(=O)(=O)N(C)C)cc2)cc1	1.3	7%	9	8	-0.4	0.8	-2	-2.7
Cc1ccc(NC(=O)COC(=O)CCC(=O)c2ccc(C(C)(C)C)cc2)c([N+](=O)[O-])c1	-0.2	28%	0	-8	?	0.1	-7	.
CCc1ccc2c(c1)C(c1cccs1)=NNC(c1cccnc1)=N2	0.3	0%	15	3	?	-0.5	-5	.
COc1cc(COc2ccc(-c3nnco3)cc2)ccc1OC(F)F	1.1	2%	13	6	0.2	-0.6	-3	0.0
O=C(O)C1=C[C@@H](c2ccccc2)C[C@@H](OCCCCO)O1	-0.5	.	-9	-8	-1.6	0.6	-8	-3.9
CN(C(=O)Cn1nc(Cl)ccc1=O)C1CCCN(Cc2ccccc2F)C1 (stereo not drawn)	0.0	-5%	0	5	-0.9	0.2	3	1.6
CCCn1c(SCC(=O)Nc2cccc(S(=O)(=O)N(C)C)c2)nc2ccccc2c1=O	1.3	12%	-3	9	?	1.5	2	-33
COCCCN1CCN(C2Cc3ccccc3Sc3ccc(Cl)cc32)CC1 (stereo not drawn)	-0.5	.	-1	28	4.0	0.3	2	.
COc1ccc(OC)c(NC(=O)CCN2CCN(C)CC2)c1	-2.9	2%	27	-5	-1.7	0.4	0	1.5
Cc1cc(C(=O)Nc2ccccc2C(=O)O)ccc1NC(=O)COc1ccccc1Cl	-0.2	4%	2	-5	-3.0	-0.5	1	-2.8
O=C(Nc1c(-c2ccc(F)cc2)nc2ccccn12)c1ccc(F)cc1	-2.0	0%	15	-6	0.8	1.0	-5	-1.0
N#Cc1cccc(NC(=O)c2nc(-c3ccccc3)n(-c3ccccc3)n2)c1	5.7	24%	2	4	0.4	-0.3	5	.
Cc1ccccc1NS(=O)(=O)c1ccc(C(=O)N(C)CC(=O)Nc2ccccc2Br)cc1	-6.4	.	.	.	.	-0.1	-3	1.1

# The list goes on.
canonical_smiles	LANA-H2A inh	Vif A3G	Calb FLC	T cruzi inh	RanGTP-Imp inh	Bfl-1 A1 inh	Beta apoptosis	AF4-AF9 inh
O=C(Cc1csc(Nc2nc(=S)[nH]c3ccccc23)n1)NCCCN1CCN(c2ccccc2F)CC1	3.9	-15%	5	-5	3.0	1.2	19	-0.5
CCCn1nc2cc(C(=O)NCCCCc3ccccc3)ccc2c1OCC	1.1	-2%	-7	3	6.0	-0.1	-6	0.3
CC1CCN(S(=O)(=O)c2ccc(C(=O)N3CCCCC3C(=O)O)cc2)CC1 (stereo not drawn)	6.0	.	.	.	.	0.9	1	0.2
CC(OC(=O)c1ccc(-n2cnnn2)cc1)C(=O)Nc1ccccc1F (stereo not drawn)	-10	0%	.	.	.	0.7	1	-1.4
COc1cccc(/C=C/C(=O)Nc2ccccc2N2CCOCC2)c1	-1.7	14%	8	-11	0.0	0.5	-4	4.6
CN(C)CCCNC(=O)/C=C/c1ccc(OCc2c(F)cccc2Cl)cc1	-0.5	3%	37	55*	-2.8	-0.6	-2	10
CCN(Cc1ccccc1)S(=O)(=O)c1c[nH]c(C(=O)OC)c1	18	1%	-4	3	6.8	-0.3	-3	-0.1
CCN1/C(=C/c2ccc3cc(C)ccc3[n+]2CC)Sc2ccccc21	-135	.	.	53	.	-1.0	115*	17
CCN(CC(=O)Nc1ccc2c(c1)OCCO2)C(=O)COc1ccc(C)cc1	-2.9	.	-7	4	5.3	0.1	5	-2.9
Cc1nc(SCC(=O)N2CCCCC2)c2c(C)c(C)sc2n1	2.3	.	-2	8	3.3	-0.3	-1	9.2
O=C(Cc1ncc(C(F)(F)F)cc1Cl)NC1CC1	2.8	1%	-1	-2	-0.9	0.4	-14	-7.0
CN(C(=O)CSc1nc2ccc([N+](=O)[O-])cc2s1)C1CCS(=O)(=O)C1 (stereo not drawn)	-2.9	6%	5	5	2.3	-0.1	4	-15
CC(/C=N/n1c(COc2ccccc2)n[nH]c1=S)=C\c1ccco1	-0.2	26%	-10	-9	4.3	0.1	1	.
